# GLA inh pH 4.5: qHTS Assay for Inhibitors of Human alpha-Galactosidase at pH 4.5. 230,000 tested, under 10 active. activity change, negative = inhibition, % at 105 µM. purified enzyme, 4-MU-alpha-Gal fluorescence, pH 4.5. AID 1467, 2008; inconclusive = small, poorly fitted or top-dose-only inhibition, or a rising curve; inactive = flat fitted curve, though single readings scatter; no compound was filed as active;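 also: 0% = full activity with enzyme and -100% = basal without enzyme; dose as in the result columns while the protocol names 77 µM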
# Target sequence (P06280 whole entry, looked up): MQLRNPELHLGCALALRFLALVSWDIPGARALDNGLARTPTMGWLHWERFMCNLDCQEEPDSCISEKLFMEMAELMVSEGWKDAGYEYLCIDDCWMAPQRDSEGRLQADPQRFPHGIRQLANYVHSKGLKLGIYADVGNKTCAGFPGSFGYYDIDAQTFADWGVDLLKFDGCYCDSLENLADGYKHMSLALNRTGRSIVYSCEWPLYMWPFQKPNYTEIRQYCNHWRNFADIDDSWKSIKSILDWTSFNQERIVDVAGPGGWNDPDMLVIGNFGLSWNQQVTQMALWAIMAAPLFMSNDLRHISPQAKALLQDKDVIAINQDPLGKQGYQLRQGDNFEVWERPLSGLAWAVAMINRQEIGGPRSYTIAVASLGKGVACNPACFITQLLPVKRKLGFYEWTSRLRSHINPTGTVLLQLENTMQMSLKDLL
# Rango complex inh: qHTS Assay for Inhibitors of Rango (Ran-regulated importin-beta cargo) - Importin beta complex formation; Rango CFP/YFP FRET sensor + importin beta, 45 min; 0.031% of 340,000 active; Potency, µM (highest dose often 92.2 µM), without a hit: at the highest dose inhibition of complex formation; AID 540263, 2011; Importin subunit beta-1 (Homo sapiens), Q14974; active = rising FRET ratio curve, often small or poorly fitted; inconclusive = mostly compound fluorescence or quenching in the first reads; inactive = flat curves in all reads;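 also: potency is read from the fitted curve at half-maximal effect; 0% = DMSO wells and 100% = buffer wells lacking importin beta; nearly all actives have a fitted effect of over 15% in size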
#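 FRET biosensor Rango (snurportin 1 IBB between N-terminal EYFP and C-terminal Cerulean), 50 nM in PBS/1 mM DTT/0.02% Tween-20/0.1% BSA, preincubated 5 min RT with compound; 0.125 microM importin beta added, 45 min RT, CFP/YFP FRET ratio read.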
# miR-21 FLuc: qHTS Assay for Modulators of miRNAs and/orActivators of miR-21; AID 2288, 2010; 340,000 tested, under 10 active; HeLa miR-21 FLuc reporter, luciferase, 48 h; Potency, µM (highest dose often 38.3 µM), for the others: top-dose reporter change, positive = more light; active = well fitted rising curve with a large enough effect; inconclusive = small, poorly fitted or top-dose-only effect; inactive = no such curve, though single readings can be large or run the other way;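 also: % of control where 0% means no effect; miR-21 action dims this reporter so a rising signal means less miR-21 action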
#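 Luminescence from a firefly luciferase reporter carrying a miR-21 binding site downstream, stably expressed under a CMV promoter in HeLa cells that make miR-21 endogenously, reports miRNA modulation after 48 h compound exposure up to approximately 40uM final.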
# Rango release inh: qHTS Assay for Inhibitors of RanGTP induced Rango (Ran-regulated importin-beta cargo) - Importin beta complex dissociation; 0.071% of 340,000 active; AID 540253, 2011; Potency, µM (highest dose often 46.1 µM), for inactives: at the top dose activity change, negative = inhibition; Biochemical FRET Rango-importin beta, RanGTP-induced dissociation; Snurportin-1 (Homo sapiens) + GTP-binding nuclear protein Ran (Homo sapiens) + Importin …; active means falling FRET ratio curve, often poorly fitted, with flat reads before Ran was added; inconclusive means other falling curves, or compound fluorescence or quenching; inactive means flat or rising ratio curve;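 also: potency is read from the fitted curve at half-maximal effect; % of control where 0% means no effect; nearly all actives have a fitted effect of over 45% in size; -100% = wells without RanGTP and RCC1; the record marks most hits as doubtful in a second field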
#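 Two FRET readings bracket the reaction: one 5 min after compound meets Rango–importin beta, another 45 min after RanGTP-RCC1 (0.6 uM Ran, 0.2 uM RCC1, 2 mM GTP) is added. Only the second defines inhibition.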
# An asterisk follows results filed as active; ? = inconclusive; / = not tested or not shown; & = joins results of further samples; [ ] = remark or other dose.
SMILES,GLA inh pH 4.5,Rango complex inh,miR-21 FLuc,Rango release inh
COc1ccc(C(=O)NC(CC(=O)O)c2cc([N+](=O)[O-])ccc2Cl)c(SC)c1 (stereo not drawn),-10,-4.1%,-1%,-1%
CCCC(=O)N(CCc1ccccc1)Cc1nc2ccccc2c(=O)[nH]1,-2,-4.7%,11%,1%
CCN(CC(=O)NCc1ccc(F)cc1)C(=O)/C=C/c1ccc(OC)c(S(=O)(=O)NC(C)C)c1,/,-1.7%,25%,13%
O=C(COC(=O)c1ccccc1C(=O)N1CCN(c2ccccc2)CC1)Nc1ccccc1,4,-2.3%,20%,6%
CCCOc1ccc(-c2nc(N)n[nH]2)cc1,13,-6.9%,-30%,-5%
O=C(NCCOc1ccccc1)C1CCCCC1,-2,0.1%,-54%,-16%
Cc1cc(C(=O)COc2ccccc2C(N)=O)c(C)n1CC1CCCO1 (stereo not drawn),5,-2.4%,20%,-11%
Cc1ccc(Sc2ccc(C(=O)N3CCOCC3)cc2[N+](=O)[O-])cc1,/,-0.3%,-4%,2%
CC(=O)Nc1cc2nc(C)n(Cc3ccccc3)c2nc1C,/,2.0%,-5%,12%
Cc1ccc(S(=O)(=O)N2CCN(CCOc3ccccc3)CC2)cc1,/,1.5%,/,-8%
CCN1CCN(c2cc(C)c3cc(NC(=S)N4CCN(c5ccc(F)cc5)CC4)ccc3n2)CC1,0,-2.9%,0%,5%
CCOCCn1c(N2CCN(c3ccccc3)CC2)nc2c1c(=O)[nH]c(=O)n2C,4,1.7%,-62%,3%
CCOC(=O)c1c(CN2CCN(C)CC2)oc2ccc(OC)cc12,4,2.4%,-8%,-5%
COc1ccc(Nc2nc(NCCO)nc(N3CCCC3)n2)cc1,/,-0.6%,/,-10%
COc1ccc(CCNc2ncnc3c2c(C)c(C)n3CCO)cc1OC,/,0.3%,-9%,-5%
CCN(C[C@H]1N[C@@](CC)(C(=O)OC)[C@H]2C(=O)N(C)C(=O)[C@@H]12)C(=O)c1ccc(F)cc1,/,-0.1%,/,0%
COc1ccc2cc(CCNS(=O)(=O)c3ccc(NC(C)=O)cc3)c(=O)[nH]c2c1,/,-0.6%,-1%,-6%
Cc1ccc(NC(=O)COC(=O)CCOc2ccccc2C)cc1,-3,-2.5%,0%,-17%
O=C(COC(=O)/C=C/c1ccc(F)cc1)Nc1cccc(S(=O)(=O)N2CCCC2)c1,0,-0.2%,-5%,26%
Cn1c(=O)[nH]c(=O)c2c1nc([N+](=O)[O-])n2Cc1ccccc1,-1,?,?,-2%
O=C(O)c1cc(-c2ccc(/C=C3/SC(=S)N(Cc4ccccc4)C3=O)o2)ccc1Cl,-10,?,-22%,?
Cc1nnc(SCC(=O)NCCN2C(=O)CSC2=O)n1-c1ccccc1,0,4.9%,-2%,-1%
C[C@H](CO)N1C[C@H](C)[C@@H](CN(C)C(=O)Nc2ccc(C(F)(F)F)cc2)Oc2c(NS(=O)(=O)c3ccc(F)cc3)cccc2C1=O,/,3.4%,/,12%
Cc1ccc(CNS(=O)(=O)c2ccc3c(c2)NC(=O)CS3)cc1,/,1.1%,-5%,7%
O=c1nc(/C=C/c2cc([N+](=O)[O-])ccc2Cl)cc(C(F)(F)F)[nH]1,-18,?,1%,-3%
CCC(NC(=O)c1ccc([N+](=O)[O-])cc1[N+](=O)[O-])c1ccccc1 (stereo not drawn),3,-0.8%,4%,-8%
CCCCN(CC)CCNC(=O)CNC(=O)Cn1ccc2ccccc2c1=O,5,3.5%,4%,7%
COc1ccc(NC(=O)CN(C)C(=O)CCCc2nc3ccccc3s2)cc1,/,1.7%,/,-17%
CCCc1ccc(-c2cc(C(=O)NN3CCOCC3)c3ccccc3n2)cc1,6,6.4%,-35%,0%
Cc1cccc(C(=O)O/N=C2/CC3CCC2(C)C3(C)C)c1 (stereo not drawn),-1,0.1%,-1%,-5%
C[C@H](CO)N1C[C@H](C)[C@@H](CN(C)C(=O)Nc2ccc(C(F)(F)F)cc2)Oc2c(NC(=O)Nc3ccc4c(c3)OCO4)cccc2C1=O,/,1.9%,/,?
CCOC(=O)Cc1csc(NC(=O)c2ccc(S(=O)(=O)N3CCCCC3)cc2)n1,-6,0.7%,13%,2%
Cc1ccc(/C=C/C(=O)OCC(=O)Nc2cccnc2Cl)o1,/,-0.2%,/,2%
Cc1ccc(S(=O)(=O)c2cc3ccccc3oc2=Nc2ccc3c(c2)OCCO3)cc1,-6,-0.7%,-5%,-1%
COc1ccc(CCNC(=O)CCn2c(=O)c3ccccc3n(CC(=O)NCC3CCCO3)c2=O)cc1OC (stereo not drawn),-15[21.1 µM],-0.4%,-1%,11%
CCOC(=O)COc1nc(OC)nc(N2CCOCC2)n1,0,0.8%,-4%,-10%
CCOC(=O)Cc1c(C)[nH]n(-c2ccccc2)c1=O,-1,0.4%,-2%,11%
O=C(NCCS(=O)(=O)N1CCN(c2ccccc2F)CC1)c1cc(=O)c2ccccc2o1,/,0.0%,-6%&3%,1%
Cc1cccn2c(=O)c3cc(C(=O)NCCN4CCOCC4)c(=N)n(Cc4cccnc4)c3nc12,/,?,9%,?
CCC(=O)N1CCc2cc(S(=O)(=O)CCC(=O)Nc3ccc(OC)c(OC)c3)ccc21,1,6.4%,0%,21%
COc1ccc(C2C=C(C)Nc3nc(SC)nn32)cc1 (stereo not drawn),13,?,-7%,18µM*
Clc1ccc(/C=N/Nc2nnc(Cl)c3ccccc23)cc1,-1,-0.5%,-26%,5%
COc1cc(C(C)=O)ccc1OCC(O)CN1CCN(c2ccc(C)cc2C)CC1 (stereo not drawn),/,0.1%,-2%,-6%
O=c1c2ccccc2oc2nc(-c3ccco3)n(Cc3ccccc3)c(=O)c12,-15,-2.1%,-9%,26%
O=C(COC(=O)c1cccnc1Nc1cccc(C(F)(F)F)c1)NC1CCS(=O)(=O)C1 (stereo not drawn),-5,2.4%,15%,-2%

# One compound at a time, as listed above. Values in the order: GLA inh pH 4.5	Rango complex inh	miR-21 FLuc	Rango release inh
# C[C@H](CO)N1C[C@H](C)[C@@H](CN(C)C(=O)Nc2ccc(C(F)(F)F)cc2)Oc2c(NC(=O)Nc3ccc4c(c3)OCO4)cccc2C1=O in the list: /	1.9%	/	?
# COc1ccc(CCNC(=O)CCn2c(=O)c3ccccc3n(CC(=O)NCC3CCCO3)c2=O)cc1OC (stereo not drawn) in the list: -15[21.1 µM]	-0.4%	-1%	11%
# CCOC(=O)Cc1csc(NC(=O)c2ccc(S(=O)(=O)N3CCCCC3)cc2)n1 in the list: -6	0.7%	13%	2%
# O=c1c2ccccc2oc2nc(-c3ccco3)n(Cc3ccccc3)c(=O)c12 in the list: -15	-2.1%	-9%	26%
# O=C(COC(=O)c1cccnc1Nc1cccc(C(F)(F)F)c1)NC1CCS(=O)(=O)C1 (stereo not drawn) in the list: -5	2.4%	15%	-2%

# Additional records.
SMILES,GLA inh pH 4.5,Rango complex inh,miR-21 FLuc,Rango release inh
COc1ccc(CN2CCC(CO)(CCOc3ccccc3)CC2)c(OC)c1C,-15,-2.1%,-1%,3%
Cc1ccc(S(=O)(=O)n2[nH]c(=O)cc2N)cc1,-3,0.2%,-2%,4%
CN(C[C@H](Cc1ccccc1)N(C[C@H](Cc1cccc2ccccc12)N(CCc1ccccc1)N=O)N=O)N=O,-9,0.2%,-1%,8%
O=C(CSc1nnc(-c2ccncc2)n1CC1CCCO1)NCc1ccccc1 (stereo not drawn),3,-2.9%,-4%,8%
O=C(CC1CCCC1)Nc1nnc(C2CC2)s1,7,0.0%,-19%,10%
CN1CCC(=NNC(=O)CSCc2ccccc2)CC1,-8,-1.9%,-6%,2%
O=C(NCC1COc2ccccc2O1)C1CCC(CNc2c(N3CCCCC3)c(=O)c2=O)CC1 (stereo not drawn),-9,-0.3%,1%,-11%
CC1CCN(C(=O)Cn2nnc(-c3cccs3)n2)CC1,-3,0.0%,-61%,-2%
CN(C)C1(CNC(=O)CC(NC(=O)c2ccccc2Cl)c2ccccc2)CCCCC1 (stereo not drawn),/,1.0%,1%,7%
COc1ccc(/C=C2/SC(=S)N(CC(=O)O)C2=O)cc1OCc1ccc(Cl)cc1,/,-2.9%,-27%,?
CCOc1ncccc1C(=O)NCC(c1ccco1)N1CCCCC1 (stereo not drawn),/,?,/,-13%
COc1cc(/C=C(\NC(=O)c2ccccc2)C(=O)NCC(=O)O)c([N+](=O)[O-])cc1OC,0,-0.9%,-2%,8%
O=C(NCCN1CCCC(O)C1)c1cc(COc2ccc(F)cc2Cl)on1 (stereo not drawn),/,0.0%,?,-3%
O=C(c1cccc(S(=O)(=O)N2CCOCC2)c1)N1CCCC1,-5,-2.2%,0%,2%
Cc1ccc(Cn2nc(C)c(NC(=O)c3cc(-c4ccco4)on3)c2C)cc1,11,1.8%,14%,-4%
COc1ccccc1C(=O)O/N=C(\N)c1ccccn1,0,-0.3%,4%,-25%
CCOCCCNC(=O)C(c1ccc(C)cc1)N(Cc1ccc2c(c1)OCO2)C(=O)c1cnccn1 (stereo not drawn),-4,2.0%,-1%,?
Cc1ccccc1Oc1nc2c(C)cccn2c(=O)c1/C=C(\C#N)C(=O)NC1CCS(=O)(=O)C1 (stereo not drawn),5,?,7%,?
CC(C)CN(C(=O)c1ccc2c(c1)OCO2)C1CCS(=O)(=O)C1 (stereo not drawn),/,-0.7%,/,31%
COc1ccc2nc(NC(=O)CNS(=O)(=O)c3cccs3)sc2c1,5,2.2%,-4%,-1%
CCOc1ccccc1NC(=O)c1nnn(-c2ccc3c(c2)OCCO3)c1N,/,1.5%,-17%,10%
O=c1c(Cc2ccc(F)cc2)c(O)ccn1CCCn1ccnc1,11,3.0%,0%,1%
O=c1[nH]c2ccc(NCc3ccc(OCc4ccccc4Cl)cc3)cc2[nH]1,/,-1.8%,-23%,16%
N#Cc1c(-c2ccc(Cl)cc2)c2c([nH]c1=O)-c1ccccc1OC2,?,?,7%,?
CC(C)C(OC(=O)c1ccco1)C(=O)NCc1cccs1 (stereo not drawn),12,?,2%,-10%
CCOC(=O)C(CC)Sc1nnc2n1C(C)(C)Cc1ccccc1-2 (stereo not drawn),8,3.8%,-1%,-21%
CSc1ncccc1C(=O)Nc1ccccc1N1CCOCC1,/,-4.9%,/,0%
CC(=O)N(CN1C(=O)C2C3C=CC(C3)C2C1=O)c1cccc(Cl)c1 (stereo not drawn),9,-1.5%,0%,-8%
COc1ccc(OC)c2c1C(=O)c1ccccc1C2=O,1,?,-17%,?
COc1ccc(-c2csc(NC(CO)c3nc4ccccc4n3CCOCCO)n2)cc1 (stereo not drawn),/,-1.4%,/,1%
COc1ccc(C(=O)N2CCCC(CO)(Cc3ccccc3C)C2)o1 (stereo not drawn),/,-1.7%,-12%,-1%
CCOc1ccc(/C=N/NC(=O)C(OC)c2ccccc2)cc1 (stereo not drawn),1,?,-5%,0%
O=C(CCCN1C(=O)/C(=C/c2ccc(F)cc2)SC1=S)NCCCn1ccnc1,/,3.9%,16%,?
O=C(Cn1cnc2ccccc21)N/N=C/c1cccnc1,4[21.1 µM],0.6%,1%,7%
COc1ccccc1CCc1nnc(CCC(=O)NC(C)Cn2nc(C)cc2C)o1 (stereo not drawn),-10,-1.2%,1%,0%
O=c1[nH]c(C(F)(F)C(F)(F)C(F)(F)F)no1,/,-0.9%,/,7%
CC(=O)Nc1ccc(C(=O)OCc2ccc(F)cc2Cl)cc1,-6,0.8%,-13%,8%
O=C(CN1C(=O)NC2(CCCC2)C1=O)N1CCN(S(=O)(=O)c2ccccc2Br)CC1,/,5.8%,0%,-10%
Cc1ccc2nc(NC(=O)Cn3cc4c(n3)CCCCC4)sc2c1,3,?,-17%,-18%
COC(=O)C1(CCSC)NC(c2ccccc2F)C2C(=O)N(c3ccc4c(c3)OCCO4)C(=O)C21 (stereo not drawn),-4,2.3%,2%,18%
Cc1ccc(NC(=O)N(CCCN2CCOCC2)Cc2cccs2)cc1C,-7,2.2%,-15%,-6%

# Screens (PubChem BioAssay)

# These rows are one share of the data. The share of hits here may be higher or lower than overall.
